Bioassay records as filed in PubChem BioAssay.
CHT allo act = allosterically activates the human high affinity choline transporter; Q9GZV3; CHT-expressing cells, membrane potential dye, choline EC20; stronger effect = higher value; LV-AA mutant CHT in HEK293 cells; B-score at 10 µM; actives 0.49% (n = 310,000); AID 488977;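 active = initial fluorescence not abnormally high and integrated response B-score, plate-corrected, over 3 SD above library mean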
Calls only; i = inactive.

SMILES	CHT allo act
CC(=NCCN1CCCCC1)c1c(O)[nH]c(=O)[nH]c1=O	i
COC(=O)C1=C(c2cc3ccccc3s2)C[C@@H]2CC[C@H]1N2C(=O)NC1CCCCC1	i
c1ccc2c(c1)OCC(C1=NCCN1)O2 (stereo unspecified)	i
Cc1cc(/C=C2\C(=O)NC(=O)N(Cc3ccccc3Cl)C2=O)c(C)n1-c1ccc(C(=O)O)cc1	i
CCOC(=O)c1cccc(NC(=O)c2c(O)[nH]c(=O)[nH]c2=O)c1	i
Cc1sc2ncn(CC(=O)NCCCC(=O)N3CCC4(CC3)OCCO4)c(=O)c2c1C	i
CCOc1ccccc1-n1c(O)c(C=Nc2ccc(N(CC)CC)cc2)c(=O)[nH]c1=O	i
CC(=NCc1ccc2c(c1)OCO2)c1c(O)[nH]c(=O)[nH]c1=O	i
COC(=O)C1=C(c2ccccc2)C[C@@H]2CC[C@H]1N2C(=O)NC1CCCCC1	i
CSc1nnc([C@@H](N)Cc2c[nH]c3ccccc23)o1	i
O=C(c1ccccc1)N1CCC2(CC1)OCCO2	i
Fc1ccc(CNCCc2ccccc2)cc1	i
O=C(Cc1ccccc1[N+](=O)[O-])N1CCN(Cc2ccc3c(c2)OCO3)CC1	i
CC(C)OC12Oc3ccccc3C=C1N1CCC2CC1 (stereo unspecified)	i
CCCN1CC(C)C(OC(C)=O)(c2ccccc2)CC1C (stereo unspecified)	i

Random excerpt: six entries already listed.
SMILES	CHT allo act
COC(=O)C1=C(c2cc3ccccc3s2)C[C@@H]2CC[C@H]1N2C(=O)NC1CCCCC1	i
Cc1cc(/C=C2\C(=O)NC(=O)N(Cc3ccccc3Cl)C2=O)c(C)n1-c1ccc(C(=O)O)cc1	i
O=C(Cc1ccccc1[N+](=O)[O-])N1CCN(Cc2ccc3c(c2)OCO3)CC1	i
CC(=NCc1ccc2c(c1)OCO2)c1c(O)[nH]c(=O)[nH]c1=O	i
CC(C)OC12Oc3ccccc3C=C1N1CCC2CC1 (stereo unspecified)	i
Fc1ccc(CNCCc2ccccc2)cc1	i

The listing picks up; the three compounds before the break are reprinted first.
SMILES	CHT allo act
O=C(Cc1ccccc1[N+](=O)[O-])N1CCN(Cc2ccc3c(c2)OCO3)CC1	i
CC(C)OC12Oc3ccccc3C=C1N1CCC2CC1 (stereo unspecified)	i
CCCN1CC(C)C(OC(C)=O)(c2ccccc2)CC1C (stereo unspecified)	i
CC(C)c1oc(=O)cc2c1[C@@H](O)[C@H]1OC(=O)[C@@]3(C)CC[C@@H](O)[C@@]2(C)C13 (stereo partly specified)	i
Cc1cc(S(=O)(=O)NC(C)C)ccc1OCC(=O)N1CCN(Cc2ccc3c(c2)OCO3)CC1	i
O=C(COc1ccc(Cl)cc1)N1CCN(C2CCCC2)CC1	i
O=C1CCCC2C3CCCN4CCCC(CN12)C34 (stereo unspecified)	i
COc1ccc2[nH]c3c(c2c1)CCN[C@H]3C	i
COc1ccccc1N1CCN(Cc2ccc3c(c2)OCO3)CC1	i
CCN1CCN(C(=O)COc2ccc(S(=O)(=O)N3CCOCC3)cc2Cl)CC1	i
CN1C(=O)C(=Cc2ccc(N3CCCCC3)o2)C(=O)N(C)C1=S	i

An excerpt, and most or all hits are left out here.
